B2AR ag: activates human beta-2 adrenergic receptor causing internalization. P07550. Am2.2-beta2AR cells, FAP receptor internalization, flow cytometry; reference of the scale not given here. response, % (concentration not given with the values). 340,000 compounds, 0.43% hits. AID 504454;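 active = response above a set limit, near 3 SD of response in nonfluorescent compounds, cut at about 42% in these data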;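 also: stock transfer was 100 nL into about 11 µL; a reference agonist was the positive control; negative values mostly stem from fluorescent compounds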
FGF22 binding: binders of recombinant human FGF22 by thermal shift; Q9HCT0; SYPRO orange fluorescence; percent of sucrose octasulfate shift, DMSO zero; calls only at 9.99 µM; 340,000 compounds, 1.5% hits;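 active = melting point raised past a set limit in the mean and every replicate; three in four hits are not shown here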
ALR inh: inhibitors of human sulfhydryl oxidase ALR; inhibition, % (no concentration beside the values); AID 485317; purified ALR, DTT oxidation, H2O2 HRP-luminol luminescence; 290,000 compounds, 3.8% hits;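 active = mean and each replicate at 75% or more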;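 also: stock transfer was 7.5 nL into about 7.5 µL; 0% = neutral wells and 100% = wells with inactivated enzyme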
Target sequence (P55789 whole entry, looked up): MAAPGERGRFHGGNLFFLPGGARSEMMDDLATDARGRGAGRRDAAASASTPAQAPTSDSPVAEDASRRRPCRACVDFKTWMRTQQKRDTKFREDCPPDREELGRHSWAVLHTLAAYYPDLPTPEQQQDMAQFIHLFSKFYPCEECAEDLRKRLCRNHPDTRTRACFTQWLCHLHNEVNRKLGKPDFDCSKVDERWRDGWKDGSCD
UCH37 inh: blocks the human deubiquitinase UCH37; Q9Y5K5; purified proteasome/UCH37, Ub-AMC cleavage fluorescence; inhibition, % (concentration not given with the values); 330,000 compounds, 0.33% hits; AID 588478;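 active = mean of two replicates above 20%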;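 also: 0% = compound-free wells with enzyme and 100% = wells lacking proteasome; stock transfer was 100 nL into about 20 µL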
Target sequence (Q9Y5K5 whole entry, looked up): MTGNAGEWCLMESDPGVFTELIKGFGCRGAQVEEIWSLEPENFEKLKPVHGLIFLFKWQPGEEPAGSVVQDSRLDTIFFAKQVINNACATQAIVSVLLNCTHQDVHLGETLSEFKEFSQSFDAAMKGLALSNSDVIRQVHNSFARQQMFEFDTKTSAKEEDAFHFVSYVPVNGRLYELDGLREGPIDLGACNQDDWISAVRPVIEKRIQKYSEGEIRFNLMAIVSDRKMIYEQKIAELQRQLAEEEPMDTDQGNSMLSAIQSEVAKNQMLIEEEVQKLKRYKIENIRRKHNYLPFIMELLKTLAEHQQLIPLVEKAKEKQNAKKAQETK
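system = Proteasome-associated human UCH37 deubiquitinase | amount = 0.15 nM proteasome as dispensed | medium = pH 7.4 Tris-HCl (50 mM) with ovalbumin, ATP-MgCl2, DTT | incubation = 30 min preincubation with enzyme, 25 min cleavage at room temperature | detection = AMC fluorescence 355/460 nm | read-out basis = percent inhibition | controls = no-proteasome and no-compound wells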
E coli growth: blocks Escherichia coli growth; OD600, 23 h; hits give low values; OD600 absorbance (no concentration beside the values); 330,000 compounds, 0.21% hits; AID 1053175;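 active = OD600 absorbance below the run mean of sample wells minus 3.6 SD, in any replicate, cut at about 0.56 in these data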;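 also: stock transfer was 300 nL into about 60 µL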
Ecoli rRNA inh: inhibitors of bacterial rRNA selective over humanized ribosomes; E. coli WT GFP vs humanized-ribosome RFP mutants, fluorescence, 24 h; hits give low values; DMSO median 0, no signal -100; GFP signal change (wild-type ribosome), % (test concentration not listed); 350,000 compounds, 1.6% hits; AID 720706;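 active = significant combined selectivity score with lowered wild-type GFP, culture density cut under 30%, mutant RFP and density less affected; inactive = any of these conditions unmet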; also: one replicate is shown; some compounds called inactive have numbers as strong as hits
HNF4A DNA FP: change in binding of human HNF4 alpha to DNA; 360,000 compounds, 0.3% hits; HNF4a-FITC DNA binding, fluorescence polarization, 1 h; AID 1224865; P41235; activity change, % at 10 µM; in the data active = activity change above about 30%, passing the limit was not always enough;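 also: controls were the assay level and a saturating level of protein; the project sought stronger binding though the title names inhibitors; some compounds called inactive have numbers as strong as hits; positive values seem to mean higher polarization but the record does not say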
Target sequence (P41235 whole entry, looked up): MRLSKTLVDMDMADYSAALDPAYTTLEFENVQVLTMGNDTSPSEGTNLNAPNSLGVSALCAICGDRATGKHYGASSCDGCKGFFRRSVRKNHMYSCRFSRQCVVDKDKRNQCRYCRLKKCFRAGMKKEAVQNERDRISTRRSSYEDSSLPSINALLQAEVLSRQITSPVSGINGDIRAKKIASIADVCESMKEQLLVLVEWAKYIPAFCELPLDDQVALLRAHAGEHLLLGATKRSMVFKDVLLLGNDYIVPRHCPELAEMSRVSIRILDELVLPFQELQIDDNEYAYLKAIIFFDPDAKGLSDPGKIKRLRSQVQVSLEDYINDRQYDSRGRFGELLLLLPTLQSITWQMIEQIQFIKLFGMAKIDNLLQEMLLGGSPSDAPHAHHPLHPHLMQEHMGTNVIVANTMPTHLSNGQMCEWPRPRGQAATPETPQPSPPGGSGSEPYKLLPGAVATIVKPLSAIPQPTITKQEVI
Ecoli rRNA inh OD600: also measured in Ecoli rRNA inh; calls as there; OD600 change, %; measured here: OD600 growth;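 optical density of the mix in the first replicate; 0 = DMSO median and -100 = no signal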
Ecoli rRNA inh RFP: second read-out of Ecoli rRNA inh, no call of its own (marks repeat the call); RFP signal change, %; measured here: RFP humanized mutant strains;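 first replicate; 0 = DMSO median and -100 = no signal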
* marks the source's active call; other numbers are inactive results; i = inactive; . = no result given.

UCH37 inh	Ecoli rRNA inh	FGF22 binding	HNF4A DNA FP	E coli growth	B2AR ag	Ecoli rRNA inh RFP	ALR inh	Ecoli rRNA inh OD600	Molecule
6.0	3	i	8.4	0.71	-3	0.0	-4	20	Cc1ccc(NC(=S)NC(=O)c2cncc(Br)c2)cc1Cl
-2.6	.	.	-0.8	0.64	4	.	-9	.	Cc1cccc(NC(=O)CSc2nnc(-c3ccncc3)n2C)c1
2.2	.	i	13	0.71	-15	.	91*	.	Nc1c(-c2ccccc2)c(CSc2nc3ccccc3[nH]2)nn1-c1cccc(Cl)c1
3.5	-12	i	-5.3	0.68	-2	-6.2	-24	-6	COc1c(C)cc(C(=O)C2CCCN(C(=O)c3ccoc3)C2)cc1C (stereo not drawn)
i	-22	i	2.0	0.66	-18	-2.4	.	-18	CN(C(=O)c1cc2c(=O)n3ccccc3nc2s1)C1CCCCC1
3.2	1	i	-2.2	0.68	-3	-3.2	15	12	Cc1cccc(OCC(=O)Nc2nnc(-c3ccco3)s2)c1
11	9	i	3.6	0.71	-5	-0.8	10	-2	CCn1cc(/C=C(\NC(=O)c2ccccc2F)C(=O)NCCN2CCOCC2)c2ccccc21
3.2	.	.	-3.5	0.66	5	.	-10	.	Cc1ccc(C(O)c2nccn2C)o1 (stereo not drawn)
2.3	1	i	-0.7	0.71	-4	5.3	.	4	CC[C@@]1(C(=O)OC)N[C@H](CN(C)S(=O)(=O)c2ccc(OC(F)(F)F)cc2)[C@@H]2C(=O)N(C)C(=O)[C@@H]21
2.1	13	i	-4.5	0.6	-3	7.2	.	11	Nc1o[nH]c(=O)c1Cc1ccccc1
.	2	i	3.5	.	.	-0.6	.	7	Cc1cc2nc(-c3ccco3)c(CC(C)(C)C)n2c(C)c1Br
.	-32	i	-3.6	.	.	2.3	.	-48	COc1ccc(NC(=O)C2(C)CCN2Cc2ccccc2Cl)cc1OC (stereo not drawn)
4.1	.	.	-1.2	0.69	-1	.	.	.	O=C(CNc1ccc(Br)cc1)NNC1=NCCC1
-0.7	-3	.	0.0	0.74	-2	-1.2	3	-3	CC1CCC2(CC1)NC(=O)N(Cc1nc(-c3ccccc3)no1)C2=O (stereo not drawn)
-1.6	.	.	-3.2	0.79	4	.	.	.	CCOC(=O)c1ccccc1NC(=O)c1ccccc1NS(C)(=O)=O
3.5	5	i	-0.8	.	-3	-1.8	1	10	Cc1cccc(C(=O)O[C@H]2[C@H](Cc3ccccc3)NS(=O)(=O)[C@H]3CC4C=C[C@]23O4)c1
1.9	7	i	-2.2	0.58	4	-0.3	-6	5	COc1ccccc1NC(=O)C(C)OC(=O)Cc1n[nH]c(=O)c2ccccc12 (stereo not drawn)
3.0	-39*	i	-1.1	0.65	5	-7.9*	97*	-23*	Oc1ccc(Br)cc1-c1ccnn1-c1ccccc1
0.2	-4	i	3.8	0.65	-3	1.7	-4	-11	COc1ccc(C(=O)OCC(=O)Nc2cccc(C(C)=O)c2)c(OC)c1OC
4.8	.	.	-0.4	0.71	-7	.	-7	.	CC(=O)N1CCc2cc(S(=O)(=O)NCCN3CCC(C)CC3)ccc21

Further structures.
UCH37 inh	Ecoli rRNA inh	FGF22 binding	HNF4A DNA FP	E coli growth	B2AR ag	Ecoli rRNA inh RFP	ALR inh	Ecoli rRNA inh OD600	Molecule
.	1	i	1.1	.	-4	1.3	.	10	O=C(c1ccc(CNc2c(NC3CCCCC3)c(=O)c2=O)cc1)N1CCc2ccccc21
4.8	-20*	i	-0.4	0.72	-10	0.4*	.	-0.4*	CC(CNc1ccc(Cl)cc1)(CNc1ccc(Cl)cc1)[N+](=O)[O-]
.	27	i	1.7	.	.	4.1	.	15	COC(=O)Cn1c(C(=O)N(C)C)cc2c1C[C@H]1CN(C(=O)c3ccccc3)[C@@](Cc3ccc(F)cc3)(C(=O)OC)[C@@H]21
2.9	.	.	-1.1	0.73	4	.	.	.	CCOC(=O)CC(=O)Nc1nc2ccccc2s1
3.2	14	i	0.8	0.7	-1	-1.7	4	9	COC(=O)C1=C(C)N(c2ccc(OC)c(OC)c2)C(=O)/C1=C\c1cccs1
-0.2	.	.	4.5	0.66	1	.	-8	.	Cc1ccc(-c2cc(C(=O)N3CCCC3)no2)cc1
-0.6	.	.	-0.4	0.72	-2	.	-11	.	Cc1nc(SCC(=O)Nc2c(C)n(C)n(-c3ccccc3)c2=O)nc(C)c1C
-12	-38*	i	-2.4	0.64	2	-2.9*	-11	-26*	CCCCn1nc2cc(C(=O)NCCc3ccc(C)cc3)ccc2c1OCC
0.1	-3	i	-0.5	0.71	3	-6.8	.	-14	CC(C)(C)c1ccc(C(=O)NNC(=O)c2cccc(-n3cnnn3)c2)cc1
.	0	i	0.8	.	-4	-0.3	.	0	O=C(CC1S/C(=N/N=C/c2cccs2)NC1=O)Nc1ccc(Cl)cc1 (stereo not drawn)
0.8	.	.	2.9	0.72	5	.	-1	.	Cc1ccc2c(CN3CCN(S(=O)(=O)c4ccc5c(c4)OCCO5)CC3)cc(=O)oc2c1C
3.9	-7	i	3.5	0.67	2	1.4	3	-5	CCN(C[C@H]1N[C@@](CC)(C(=O)OC)[C@H]2C(=O)N(Cc3ccccc3)C(=O)[C@@H]12)C(=O)c1ccc(F)cc1
3.7	.	.	-1.8	0.75	3	.	-13	.	C=C(C)c1cccc(C(C)(C)NC(=O)N2CCN(C/C=C/c3ccccc3)CC2)c1
9.0	3	i	-0.2	0.71	-4	-1.1	-16	14	O=C(Nc1ncccn1)C1=C(O)c2ccccc2S(=O)(=O)N1Cc1ccccc1
-0.1	6	i	0.7	0.63	1	-0.1	-4	5	CN(C)CCNc1cnn(-c2ccccc2)c(=O)c1Cl
0.1	12	i	0.9	0.68	5	-2.9	-7	9	Cc1cc(-n2c(C)cc(C(=O)CN3C(=O)C(=O)N(C)C3=O)c2C)no1
2.7	.	.	3.5	0.7	6	.	-22	.	OC(COCC1COc2ccccc2O1)CN1CCc2ccccc2C1 (stereo not drawn)
5.3	-23	i	-0.8	0.73	5	-5.9	2	-30	Cc1ccc(OCCN2C(=O)NC3(CCc4ccccc4C3)C2=O)cc1 (stereo not drawn)
0.3	.	.	0.8	0.64	1	.	.	.	CC(C)CNC(=O)C1(N2C(=O)c3ccccc3C2=O)CCCC1
2.6	.	.	-1.9	0.77	-12	.	-42	.	Cn1c(-n2c(CCCN3C(=O)c4ccccc4C3=O)nc3ccccc3c2=O)nc2ccccc21

Next entries
UCH37 inh	Ecoli rRNA inh	FGF22 binding	HNF4A DNA FP	E coli growth	B2AR ag	Ecoli rRNA inh RFP	ALR inh	Ecoli rRNA inh OD600	Molecule
0.0	-9	i	-0.2	0.7	0	-1.0	85*	-3	Cc1[nH]n(C)c(=O)c1C(=O)c1c(-c2ccccc2Cl)noc1C
62*	7	i	3.2	0.76	-12	-0.8	.	15	O=C1Cc2ccccc2C(=O)N1CCc1ccccc1
.	10	i	1.7	.	.	0.5	.	11	CCN(CC(=O)NCc1cccs1)C(=O)/C=C/c1ccc(F)cc1
.	11	i	2.8	.	.	3.8	.	16	COCCCn1c(C(=O)NC2CCCCC2)cc2c(=O)n3cccc(C)c3nc21
0.2	6	i	1.6	0.7	-4	1.1	.	12	COc1ccc(S(=O)(=O)N2CCC(C(=O)N3CCN(C)CC3)CC2)cc1OC
4.0	4	i	1.0	0.7	-2	-1.0	2	11	O=S(=O)(NCc1cccs1)c1ccccc1Cl
0.3	.	.	0.3	0.74	5	.	-12	.	Cc1cccc(OCCOCCSc2ncccn2)c1
0.6	-33*	i	-0.8	0.65	-13	-0.3*	1	-15*	COc1ccc(C(=O)Nc2ccc(NC(C)=O)cc2)cc1S(=O)(=O)N1CCCC1
-1.1	17	i	-2.7	0.71	0	2.1	2	8	CCC(CC)C(=O)NCc1cccnc1
-0.3	.	.	-3.4	0.62	-18	.	2	.	O=C(Nc1nc2ccccc2[nH]1)c1ccccc1F
-12	2	i	0.9	0.72	-3	-6.6	47	7	O=C(/C=C/c1ccco1)Nc1ccc2nn(-c3ccccc3)nc2c1
-1.1	.	.	-0.7	0.72	2	.	98*	.	CCOc1cc(/C=C(\C#N)C(N)=O)ccc1OS(=O)(=O)c1ccccc1
4.2	.	.	6.2	0.74	-2	.	.	.	CCC(CC)C(=O)NCCNC(=O)C(CC)CC
2.1	-4	i	-0.6	.	-5	0.8	-2	7	C[C@H](OC(=O)c1[nH]cnc1C(=O)N1CCN(C(=O)OC(C)(C)C)CC1)c1ccccc1
1.3	.	.	5.1	0.77	-9	.	-9	.	CCCc1nnc(NC(=O)CCC(=O)NCc2ccccc2OC)s1
4.8	8	i	4.6	0.74	-7	3.5	46	14	CC1CCCCN1CCNC(=O)CC1Oc2ccccc2NC1=O (stereo not drawn)
4.3	.	.	-3.7	0.79	-5	.	.	.	O=C(CSc1nc(N2CCCCC2)nc(N2CCCCC2)n1)N1CCN(c2ccccc2)CC1
0.4	.	i	-3.9	0.7	-5	.	2	.	CC1CN(C(=O)c2ccccc2NS(=O)(=O)c2ccc(Cl)cc2)CC(C)O1 (stereo not drawn)
0.7	.	.	-2.0	0.74	-8	.	-10	.	CC1SCCN1S(=O)(=O)c1ccc2ccccc2c1 (stereo not drawn)
.	.	.	4.1	.	3	.	50	.	Clc1ccc(-c2nc(/C=N/N3CCOCC3)c3ccccn23)cc1

Laid out differently: 3 of the compounds above.
Structure | UCH37 inh | Ecoli rRNA inh | FGF22 binding | HNF4A DNA FP | E coli growth | B2AR ag | Ecoli rRNA inh RFP | ALR inh | Ecoli rRNA inh OD600
O=C1Cc2ccccc2C(=O)N1CCc1ccccc1 | 62* | 7 | i | 3.2 | 0.76 | -12 | -0.8 | . | 15
CCN(CC(=O)NCc1cccs1)C(=O)/C=C/c1ccc(F)cc1 | . | 10 | i | 1.7 | . | . | 0.5 | . | 11
COCCCn1c(C(=O)NC2CCCCC2)cc2c(=O)n3cccc(C)c3nc21 | . | 11 | i | 2.8 | . | . | 3.8 | . | 16

The list goes on:
UCH37 inh	Ecoli rRNA inh	FGF22 binding	HNF4A DNA FP	E coli growth	B2AR ag	Ecoli rRNA inh RFP	ALR inh	Ecoli rRNA inh OD600	Molecule
1.1	0	i	-2.1	0.66	-1	0.4	.	-6	CC1CCCCC12NC(=O)N(CC(=O)N1CCN(S(=O)(=O)c3ccc4c(c3)CCC4)CC1)C2=O (stereo not drawn)
.	-26	i	3.3	.	12	-8.7	2	-30	O=C(N/N=C(\c1ccccc1)c1cccnc1)c1cccc(F)c1
0.0	5	i	-4.5	0.68	2	0.0	.	12	CCOC(=O)C1CCC(=O)C1 (stereo not drawn)
0.6	2	i	-0.7	0.63	2	2.5	-1	3	O=C(Cn1ccc(NC(=O)OCc2ccccc2)nc1=O)NCc1nc2ccccc2[nH]1
.	.	.	13	.	10	.	-50	.	Cc1cc(C)cc(-n2c(C)c3c(C)nnc(C)c3c2C)c1
1.3	10	i	2.2	0.71	-13	1.1	-5	9	O=C(NC1CC1)c1cc2c(s1)CS(=O)(=O)C2
1.0	4	i	-3.8	0.65	2	-0.4	-7	-2	Cc1c(C(=O)N2CCCCCC2)c(S(=O)(=O)Nc2ccc(F)cc2)c(C)n1C
1.7	7	i	1.9	0.67	-8	2.6	-10	14	O=C(COC(=O)Cc1cccc(C(F)(F)F)c1)NC1CCS(=O)(=O)C1 (stereo not drawn)
1.5	2	i	2.4	0.7	-1	-1.8	0	3	COc1ccc(S(=O)(=O)N(C)C)cc1NC(=O)CSc1nncs1
-2.5	.	.	3.1	0.67	14	.	-17	.	Cc1c(C(=O)NCc2cccnc2)oc2ccc(S(=O)(=O)N3CCCCCC3)cc12

Assay outcomes from PubChem BioAssay.

A portion of the library, so the mix of outcomes need not match the whole.
